# Screening results deposited in PubChem by several laboratories.
# Beta apoptosis: beta cell apoptosis inhibition; 0.8% of 300,000 active; protection from apoptosis, % (no concentration beside the values); INS-1E cytokine-induced death, ATP luminescence, 48 h; percent of positive-control rescue, neutral wells zero;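 active = all replicates at 75% or more, or half of them and the mean; inconclusive = half reach 75% but not the mean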;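 also: 0% = cytokine-treated negative control wells and 100% = positive control rescue; higher means more ATP so stronger rescue from cytokine killing; wells of about 40 µL received 100 nL stock; the first replicate is given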
# LANA-H2A inh: blocks KSHV LANA binding to histone H2A/H2B; Q9QR71; cell-free LANA-H2A/H2B peptide, fluorescence polarization; inhibition, % (test concentration not listed); 0.6% of 320,000 active; in the data active = inhibition mostly above about 10%, no sharp cut-off; inactive = mostly below about 6.7%;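 also: stock transfer was 7.5 nL into about 10 µL; 0% = median of vehicle wells and 100% = median of positive control wells; one replicate is shown; the record names a cut of 25% in any replicate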
# Beta2AR agonist: activates human beta-2 adrenergic receptor causing internalization. P07550. Am2.2-beta2AR cells, FAP receptor internalization, flow cytometry; reference of the scale not given here. response, % (test concentration not listed). 0.43% of 340,000 active. AID 504454;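 active = response above a set limit, near 3 SD of response in nonfluorescent compounds, cut at about 42% in these data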;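 also: stock transfer was 100 nL into about 11 µL; a reference agonist was the positive control; negative values mostly stem from fluorescent compounds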
# Target sequence (P07550 whole entry, looked up): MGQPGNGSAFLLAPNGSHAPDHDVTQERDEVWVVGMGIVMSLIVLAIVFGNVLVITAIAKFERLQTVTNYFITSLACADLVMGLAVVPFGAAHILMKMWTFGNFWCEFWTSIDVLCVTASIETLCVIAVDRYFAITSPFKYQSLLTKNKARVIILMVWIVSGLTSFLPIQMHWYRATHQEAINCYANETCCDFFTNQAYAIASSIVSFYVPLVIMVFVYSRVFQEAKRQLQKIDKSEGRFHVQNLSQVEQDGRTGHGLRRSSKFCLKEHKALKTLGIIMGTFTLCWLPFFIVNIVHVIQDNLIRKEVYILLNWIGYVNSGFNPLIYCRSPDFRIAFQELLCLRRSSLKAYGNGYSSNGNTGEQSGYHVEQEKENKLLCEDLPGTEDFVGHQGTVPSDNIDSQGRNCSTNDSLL
# A1 inh: inhibitors of the anti-apoptotic protein A1, read as caspase activation; MEF A1-2A-BIM cells, Caspase-Glo 3/7 luminescence, 3 h; percent of clofoctol response, vehicle zero; caspase activation, % (concentration not given with the values); 0.066% of 330,000 active; AID 2462;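 active = over half of replicate activation scores above 10%, or exactly half above 10 with the replicate mean above 10; inconclusive = replicate mean below 10 yet half the replicates above 10; inactive = over half of replicates below 10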;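 also: wells of about 30 µL received 50 nL stock; many hits fall short of the cut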
# Calb FLC: C. albicans growth modulation with fluconazole; C. albicans CaCi-2 (fluconazole-resistant clinical isolate) + fluconazole, Alamar Blue growth, 48 h; growth inhibition, % (test concentration not listed); 0.57% of 300,000 active;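 active = most replicates above 75%; inconclusive = exactly half above 75%; inactive = most below 75%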;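 also: all wells also contain fluconazole at 8 µg/ml as a sub-toxic cotreatment; 0% = median of DMSO wells and 100% = median of geldanamycin control wells; wells of about 8 µL received 7.5 nL stock; the first replicate is given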
# T cruzi inh: blocks replication of Trypanosoma cruzi. T. cruzi beta-gal in NIH3T3, luminescence, 90 h. inhibition, % (test concentration not listed). 1.4% of 300,000 active. AID 1885;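 active = mean inhibition across valid replicates above about 55%, limit read from the data; inconclusive = mean below that limit but half or more replicates reach it; inactive = mean below it, under half of replicates reach it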;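 also: signal also drops with host cell toxicity which is not excluded here; 0% = plate median of DMSO wells and 100% = zero luminescence signal; higher percent means less beta-gal luminescence so fewer parasites; stock transfer was 50 nL into about 50 µL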
# RanGTP-Impb inh: disruptors of Ran-importin-beta complex formation – biochemical, FRET, CFP-Ran, YFP-importin-beta, homogeneous, primary screen; cell-free CFP-Ran/YFP-importin-beta FRET ratio; inhibition, % (test concentration not listed); 1.1% of 300,000 active;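 active = most replicates above 15%; inconclusive = exactly half above 15%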;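 also: 0% = DMSO wells and 100% = Ran loaded with GDP instead of GTP; wells of about 40 µL received 100 nL stock; the first replicate is given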
# UCH37 DUB inh: inhibitors of human deubiquitinating enzyme UCH37 | purified proteasome/UCH37, Ub-AMC cleavage fluorescence | inhibition, % (no concentration beside the values) | 0.33% of 330,000 active;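 active = mean of two replicates above 20%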;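 also: 0% = compound-free wells with enzyme and 100% = wells lacking proteasome; stock transfer was 100 nL into about 20 µL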
# Target sequence (Q9Y5K5 whole entry, looked up): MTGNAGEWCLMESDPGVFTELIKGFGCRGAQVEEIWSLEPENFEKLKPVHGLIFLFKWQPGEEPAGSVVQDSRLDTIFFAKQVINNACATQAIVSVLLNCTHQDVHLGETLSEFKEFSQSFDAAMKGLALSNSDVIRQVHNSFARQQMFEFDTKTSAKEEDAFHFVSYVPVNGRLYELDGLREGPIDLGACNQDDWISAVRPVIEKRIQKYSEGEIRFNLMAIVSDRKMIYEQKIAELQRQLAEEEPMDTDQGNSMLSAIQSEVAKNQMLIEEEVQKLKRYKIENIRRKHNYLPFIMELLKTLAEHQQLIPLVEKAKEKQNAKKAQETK
#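 Signal – fluorescence, ex 355 nm, em 460 nm · System – Proteasome-bound UCH37 · Input – 0.15 nM proteasome as dispensed · Timing – 30 min preincubation with enzyme, 25 min cleavage at room temperature · Read-out basis – percent inhibition of cleavage signal versus uninhibited and no-proteasome wells · Medium – Tris-HCl pH 7.4 with ATP-MgCl2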
# The depositor's hits bear a star; i = inactive; ? = inconclusive; . = no result given.
SMILES,Beta apoptosis,LANA-H2A inh,Beta2AR agonist,A1 inh,Calb FLC,T cruzi inh,RanGTP-Impb inh,UCH37 DUB inh
O=C(Nc1nnc(CCS(=O)(=O)c2ccc3ccccc3c2)s1)c1ccc([N+](=O)[O-])cc1,2,-4.2,0,0.0,-19,-5,1.4,5.1
Oc1cccc(/C=N/Nc2nn3cnnc3c3ccccc23)c1,18,8.8,-10,-3.8,-6,-2,-4.0,.
O=C1/C(=C/c2ccc(O)c([N+](=O)[O-])c2)SC(=S)N1Cc1ccccc1,23,2.4,8,-3.3,17,-15,-0.3,.
Cc1ccc2[nH]c(C(F)(F)F)cc(=O)c2c1,2,1.7,1,-0.2,-9,-7,5.2,-3.8
COc1ccc(NC(=O)CSCC(=O)Nc2ccc(S(=O)(=O)N3CCCCC3)cc2)cc1,-5,3.4,3,-0.1,-1,1,-3.8,1.3
CS(=O)(=O)N(CC(=O)Nc1cccc(Br)c1)Cc1ccccc1,.,3.2,7,0.9,1,5,-1.0,0.2
CC(C)(C)NC(=O)C(c1ccco1)N(C(=O)Cn1nnc(-c2ccc(F)cc2)n1)c1ccccc1F (stereo unspecified),-8,0.5,3,0.3,-36,31,4.0,-1.3
O=C(CSc1ccc(-c2ccccn2)nn1)Nc1nccs1,-1,2.1,-7,0.4,-4,-1,2.1,3.5
N#C/C(=N\Nc1ccccc1F)C(=N)N1CCCCC1,2,-8.4,-7,0.1,-7,3,-0.2,.
COc1cccc(NC(=O)N2CCC(NC(=O)C(Cc3ccccc3OC)NC(C)=O)CC2)c1 (stereo unspecified),.,.,-2,.,3,-4,3.0,4.8
O=c1cc[nH]c2c(C(F)(F)F)cccc12,-12,2.0,13,0.7,-17,-6,-0.8,-2.2
CC(=O)OC1(C(F)(F)F)Oc2ccccc2NC1=O (stereo unspecified),-5,1.7,4,0.4,1,-7,0.5,0.6
O=C(CN(Cc1ccco1)C(=O)c1cccc(F)c1)Nc1ccccc1C(F)(F)F,1,-0.1,1,-0.5,.,.,.,2.6
CCCNC(=O)C1(CC2CC(c3ccccc3)=NO2)CCN(C(=O)CCCCCBr)CC1 (stereo unspecified),-2,-2.2,-5,2.5,-14,-1,?,3.7
O=C(N/N=C/c1ccc(O)c([N+](=O)[O-])c1)C1CC1(c1ccccc1)c1ccccc1 (stereo unspecified),.,2.6,20,-1.2,78,-11,1.0,.
COc1cc(C)c2c(c1C=O)Oc1c(c(C)c(O)c3c1C(O)OC3=O)OC2=O (stereo unspecified),-3,-11,-5,-0.9,-4,-3,-3.0,7.4
O=S(=O)(/N=C(\c1ccccc1)N1CCOCC1)c1cccs1,-3,1.5,-5,-0.7,4,-7,2.6,.
Fc1ccc(NC(=S)NC2CC3CCC(C2)N3Cc2ccco2)cc1 (stereo unspecified),-4,-2.4,-7,0.8,-25,-15,-1.1,-0.4
CC(C)N1CCc2[nH]c(=S)[nH]c(=O)c2C1,-1,-0.5,-1,0.1,-8,-11,-3.6,5.5
Clc1ccc2nc(-c3ccc(Cl)nc3)[nH]c2c1,8,2.7,-3,-2.3,10,-1,-3.0,.
Cc1csc(NC(=O)CSCC(=O)O)c1-c1nc2ccccc2s1,-6,0.0,7,0.2,23,-28,-16,-3.8
CSc1ccc(/C=C(/NC(=O)c2ccccc2)C(=O)NCCN2CCOCC2)cc1,1,2.4,-4,-1.0,-8,-3,7.0,6.8
COc1cccc(-c2nc(CS(=O)(=O)CC(=O)Nc3c(C)cccc3C)c(C)o2)c1,-2,3.5,6,-0.8,-8,0,5.2,0.7
CC(=O)[C@H]1[C@H](C#N)C[C@H]2[C@@H]3CC=C4C[C@@H](O)CC[C@]4(C)[C@H]3CC[C@@]21C,2,3.9,2,1.1,.,5,1.0,2.6
N#Cc1nc(-c2ccccc2Cl)oc1NCC1CCCO1 (stereo unspecified),-5,-0.3,-24,0.1,-1,-6,0.9,-8.0

# Rewritten as labelled records: entries from further up
Fc1ccc(NC(=S)NC2CC3CCC(C2)N3Cc2ccco2)cc1 (stereo unspecified)
  Beta apoptosis: -4 | LANA-H2A inh: -2.4 | Beta2AR agonist: -7 | A1 inh: 0.8 | Calb FLC: -25 | T cruzi inh: -15 | RanGTP-Impb inh: -1.1 | UCH37 DUB inh: -0.4

CC(C)N1CCc2[nH]c(=S)[nH]c(=O)c2C1
  Beta apoptosis: -1 | LANA-H2A inh: -0.5 | Beta2AR agonist: -1 | A1 inh: 0.1 | Calb FLC: -8 | T cruzi inh: -11 | RanGTP-Impb inh: -3.6 | UCH37 DUB inh: 5.5

Clc1ccc2nc(-c3ccc(Cl)nc3)[nH]c2c1
  Beta apoptosis: 8 | LANA-H2A inh: 2.7 | Beta2AR agonist: -3 | A1 inh: -2.3 | Calb FLC: 10 | T cruzi inh: -1 | RanGTP-Impb inh: -3.0 | UCH37 DUB inh: .

Cc1csc(NC(=O)CSCC(=O)O)c1-c1nc2ccccc2s1
  Beta apoptosis: -6 | LANA-H2A inh: 0.0 | Beta2AR agonist: 7 | A1 inh: 0.2 | Calb FLC: 23 | T cruzi inh: -28 | RanGTP-Impb inh: -16 | UCH37 DUB inh: -3.8

# Continuation:
SMILES,Beta apoptosis,LANA-H2A inh,Beta2AR agonist,A1 inh,Calb FLC,T cruzi inh,RanGTP-Impb inh,UCH37 DUB inh
O=c1c2cnn(-c3ccccc3)c2nc(-c2cccs2)n1-c1cccc(Cl)c1,25,-2.4,17,0.6,-2,45,-2.9,-13
C#CC1(NC(=O)NS(=O)(=O)c2ccc(C)cc2)CCCCC1,-8,1.5,3,?,0,-3,3.4,0.3
CC(=NCCN1CCN(C(=S)Nc2ccccc2)CC1)C1=C(O)CC(C)(C)CC1=O,-7,2.4,-12,1.1,9,0,2.2,0.8
NS(=O)(=O)c1ccc(CCNC(=O)c2cncc(Br)c2)cc1,-9,10,-12,-0.3,-4,-5,2.7,-2.1
Cc1noc(C)c1COc1ccc2ccc(=O)oc2c1,-9,4.4,-6,-0.3,-11,4,?,-58
O=c1c2ccccc2sc2ccc(C#CC3(O)CCCCC3)cc12,6,3.4,24,0.1,18,11,30*,-0.9
O=C(CN1CCC(C(=O)c2ccc(Cl)cc2)CC1)NC1CCCC1,4,0.7,-1,0.0,1,22,3.6,-0.1
Cc1nn(CC(=O)N2CCN(c3ccccc3)CC2)c(=O)c2ccccc12,-3,0.8,2,0.5,0,-15,-2.4,3.0
COC(=O)C1CCN(C(=O)COC(=O)CNS(=O)(=O)c2ccc(SC)c([N+](=O)[O-])c2)CC1,2,1.7,3,0.3,.,8,1.2,3.2
FC(F)(F)c1cc(-c2ccco2)nc(N2CCN(Cc3ccccc3)CC2)n1,6,2.5,-3,0.5,-20,3,1.0,0.4
CC(C)c1nnc(NC(=O)CCC(=O)N2CCN(c3ccccc3F)CC2)s1,.,3.6,0,-0.2,-2,0,1.5,3.8
O=C(O)CSC1=NC(=Nc2ccc(Cl)cc2)C2(CCCCC2)N1c1cccc(C(=O)O)c1,-3,1.5,11,0.0,?,-14,-3.0,5.5
CC(C)CN(C(=O)COC(=O)/C=C/c1ccccc1)C1CCS(=O)(=O)C1 (stereo unspecified),-8,0.7,-3,-0.5,.,.,.,2.6
Cc1ccc(CN2CCN(Cc3cccn3-c3ccccn3)CC2CCO)cc1 (stereo unspecified),6,-0.7,-2,0.8,-30,18,?,3.1
CC1=C(N2CCN(c3ncccn3)CC2)CCC1=O,-7,-3.7,-2,-0.1,-7,-12,7.6,4.7
Cc1ccccc1-n1ncc2c(SCC(=O)N3c4ccccc4CC3C)ncnc21 (stereo unspecified),11,1.3,13,-1.0,13,29,-1.4,3.2
COC(=O)c1c(C)nc(C)c(C(=O)OC)c1-c1ccc(OC)cc1,1,-5.2,3,0.0,22,.,6.5,1.1
COC(=O)Cc1c(C)c2ccc(OCC(=O)c3ccc(OC)c(OC)c3)cc2oc1=O,0,-0.6,.,0.7,4,-3,-0.9,-5.4
CCCCNc1ccc2oc(-c3ccc(OC)cc3)c(-c3ccc(OC)c(F)c3)c2c1,2,-7.8,-2,0.4,.,.,.,-191
Cn1c(SCC(=O)NC2CCCC2)nnc1-c1ccncc1,-5,6.4,-6,-2.1,?,-5,0.7,-1.0
Fc1ccc(COc2ccccc2C(=S)N2CCCC2)cc1,2,2.0,1,0.1,7,0,-0.6,5.0
Cc1cc(SCC(=O)Nc2ccccc2)n2ncc(-c3ccccc3)c2n1,0,2.9,-6,0.4,-1,18,1.1,-14
Cc1ccc(CCN2CC(C(=O)NCCc3ccccc3)CC2=O)cc1 (stereo unspecified),-3,19,-1,0.5,-7,-4,2.1,5.1
Cc1cc(C(=O)OCC(=O)N2CCc3ccccc32)ccc1[N+](=O)[O-],3,-4.6,-3,-1.0,.,.,.,0.7
CCOC(=O)CN(C(=O)CSc1nnc2c(n1)[nH]c1ccccc12)c1ccccc1,-6,0.4,1,0.2,3,-4,6.1,5.3

# (more compounds)
SMILES,Beta apoptosis,LANA-H2A inh,Beta2AR agonist,A1 inh,Calb FLC,T cruzi inh,RanGTP-Impb inh,UCH37 DUB inh
O=C1NC2(CCOc3ccccc32)C(=O)N1CC(=O)N(Cc1ccccc1)C1CCS(=O)(=O)C1 (stereo unspecified),-4,5.1,-11,-1.6,-1,11,-2.8,-2.1
COC(=O)c1ccccc1NC(=O)CSc1nncn1-c1cccnc1,-6,13,-15,-0.6,-3,-4,6.3,1.2
O=c1c2cc(NC(=S)NCCN3CCCCCC3)ccc2nc2n1CCCCC2,-2,-2.1,-8,-1.8,-13,8,-1.0,-1.0
COc1ccccc1NC(=O)c1sc2nc(C)cc(C)c2c1N,.,-3.4,-9,-0.1,1,4,4.1,i
CC(C)Oc1ccc(Nc2ncnc3ccccc23)cc1,3,-1.2,-1,-3.0,6,-4,5.0,0.7
COc1ccc(C(=O)CCC(C)(C)[N+](=O)[O-])cc1,1,1.0,-5,0.2,-2,-8,2.3,1.9
COc1ccc(N2CCN(CCNC(=O)Nc3cc(Cl)ccc3Cl)CC2)cc1,5,-1.9,-3,0.3,6,7,-3.2,2.8
Cc1ccc(N2CC(C(=O)OCC(=O)c3ccc[nH]3)CC2=O)cc1 (stereo unspecified),-2,1.7,-1,1.7,.,-13,2.4,0.8
CCOC(=O)CSc1nc(C)cc(=O)[nH]1,8,-1.8,-1,-1.6,0,-11,-1.9,1.5
O=C(O)CCN(CC(=O)c1ccc(Cl)cc1)S(=O)(=O)c1ccc([N+](=O)[O-])cc1,4,-2.0,-5,-0.2,.,.,.,5.6
COc1ccc(OCCN2CCN(C(=O)c3ccc(OC)c(OC)c3)CC2)cc1,1,1.1,6,0.7,-1,0,-1.2,2.6
N#C/C(=C/c1ccccc1[N+](=O)[O-])c1nc(C2CC2)cs1,-12,-1.1,-10,0.1,26,6,10,4.5
CCCCN(CC)CCNC(=O)c1cc2c(-c3ccc(Cl)cc3)nn(C)c2s1,20,-0.3,20,1.3,-5,57*,0.9,.
Cc1noc(C)c1NC(=O)N(C)C[C@H]1Oc2ccc(NC(=O)Nc3ccc(C(F)(F)F)cc3)cc2C(=O)N([C@H](C)CO)C[C@@H]1C,3,0.5,-4,1.0,.,.,.,-65
CCOC(=O)C1CCN(C(=O)COc2ccc(Br)cc2)CC1,-1,7.9,3,-0.2,?,-5,-2.0,0.6
